Cruzain noTriton: blocks cruzain activity in detergent-free assay | Potency, µM, for the others: max response, negative = inhibition, most hits filed as inhibitors | 200,000 compounds, 2.3% hits | P25779 | AID 1476 | purified cruzain, Z-FR-AMC fluorescence, no detergent;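 note: plate controls were enzyme without inhibitor for no effect and buffer without enzyme for full effect; nearly all actives have a fitted effect of over 40% in size; top concentration of the series not given in the record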
Target sequence (P25779 123-467 limits assumed): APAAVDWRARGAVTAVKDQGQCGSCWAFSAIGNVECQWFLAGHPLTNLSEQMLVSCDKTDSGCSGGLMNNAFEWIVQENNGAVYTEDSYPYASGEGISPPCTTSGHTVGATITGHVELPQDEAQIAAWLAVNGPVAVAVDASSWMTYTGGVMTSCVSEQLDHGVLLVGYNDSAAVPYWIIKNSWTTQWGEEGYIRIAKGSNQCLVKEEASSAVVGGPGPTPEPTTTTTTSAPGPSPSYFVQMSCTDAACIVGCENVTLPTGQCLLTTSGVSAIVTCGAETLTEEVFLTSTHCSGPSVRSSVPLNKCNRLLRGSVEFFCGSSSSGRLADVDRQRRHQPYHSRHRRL
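Detergent-free condition (0.00005% Triton X-100) in acetate buffer pH 5.5 with DTT. 1.5 nM enzyme and compound were pre-mixed 15 min, then 2 uM Z-FR-AMC substrate added; reaction progress from fluorescence change between first and third reads (60 s).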
MARV entry inh: Marburg virus entry inhibition. Marburg virus pseudotyped entry inhibition, cell reporter; control for the full effect not named in the record; about a third of the inactives were read at about 46 µM. Potency, µM (top dose mostly 37.8 µM), without a hit: at the highest dose activity change, negative = inhibition, hits mostly inhibitors. 300,000 compounds, 1.8% hits. AID 540276; active = well fitted inhibition curve with a large enough effect; inconclusive = small, poorly fitted or top-dose-only effect, or effect the other way; inactive = flat fitted curve, though single readings scatter; tested in HEK293 cells; about a fifth of its hits are not listed in these tables; note: % is set by controls: 0 for no effect and ±100 for the full control effect; luciferase read-out
2A StopGo: FMDV 2A StopGo reporter, luciferase signal. human cells with a luciferase reporter of 2A StopGo recoding; control for the full effect not named in the record. AID 1159524. Potency, µM (series often up to 57.9 µM), without a hit: at the highest dose signal change, negative = less light. 410,000 compounds, 1.2% hits; active = well fitted falling curve with a large enough effect; inconclusive = small, poorly fitted or top-dose-only effect; inactive = no such curve, though single readings can be large or run the other way; tested in HEK293T cells; note: % is set by controls: 0 for no effect and ±100 for the full control effect; nearly all actives have a fitted effect of over 45% in size; luciferase light after 4 h
Lassa entry inh: inhibitors of Lassa virus binding or cell entry. Lassa virus pseudotype entry inhibition, cell reporter; control for the full effect not named in the record. Potency, µM (series often up to 37.9 µM), for the others: at the top dose activity change, negative = inhibition, hits mostly inhibitors. 300,000 compounds, 1.2% hits. AID 540256; active means well fitted inhibition curve with a large enough effect; inconclusive means small, poorly fitted or top-dose-only effect, or effect the other way; inactive means flat fitted curve, though single readings scatter; tested in HEK293 cells; note: % is set by controls: 0 for no effect and ±100 for the full control effect; nearly all actives have a fitted effect of over 50% in size; luciferase read-out
RE007 growth inh: less growth of the S. pombe RE007 Vpr strain | 360,000 compounds, 0.21% hits | S. pombe RE007 Vpr strain, BacTiter-Glo ATP luminescence, 24 h; control for the full effect not named in the record | Potency, µM (series often up to 92.2 µM), without a hit: top-dose activity change, negative = less growth; active = well fitted falling curve with a large enough effect; inconclusive = small, poorly fitted or top-dose-only effect; inactive = no such curve, though single readings can be large or run the other way;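 note: % is set by controls: 0 for no effect and ±100 for the full control effect; nearly all actives have a fitted effect of over 50% in size; the assay follows cell death caused by Vpr and the record does not say whether a fall means rescue or toxicity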
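Fission yeast strain RE007, carrying one chromosomally integrated HIV-1 vpr copy, was seeded at OD 0.01 in PMG+AL medium with 23 nL pinned compound. After 24 h at 30 °C and 99% humidity, viability was read by BacTiter-Glo luminescence.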
SARS PLpro yeast: inhibitors of SARS-CoV papain-like protease in yeast. S. cerevisiae expressing SARS-CoV PLpro, growth rescue; control for the full effect not named in the record. Potency, µM (top dose mostly 32.9 µM), for the others: at the top dose activity, positive = growth rescue. 330,000 compounds, 0.19% hits. AID 485353; active means well fitted rising curve with a large enough effect; inconclusive means small, poorly fitted or top-dose-only effect; inactive means no such curve, though single readings can be large or run the other way; note: 0% is about no effect; nearly all actives have a fitted effect of over 55% in size; growth read by luminescence after 48 h
NS1 inh: influenza NS1 inhibition; S. cerevisiae slowed by influenza A NS1, growth recovery by OD600; Potency, µM (titrated, usually from 46.1 µM), inactives show at the highest dose activity, positive = more growth; 270,000 compounds, 0.4% hits; AID 2326; active means well fitted rising curve with a large enough effect; inconclusive means small, poorly fitted or top-dose-only effect; inactive means no such curve, though single readings can be large or run the other way; note: nearly all actives have a fitted effect of over 50% in size
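In this qHTS, NS1 from influenza A is expressed in budding yeast, where it slows growth. Cells are switched from glucose to 2% galactose medium (pH 6.0, -URA), treated with compound, and growth recovery is read at OD600.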
Cruzain inh Det: cruzain (T. cruzi) inhibition with detergent; 200,000 compounds, 0.43% hits; purified cruzain, Z-FR-AMC fluorescence, 0.01% Triton; Potency, µM, without a hit: max response, negative = inhibition, most hits filed as inhibitors; P25779;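 note: plate controls were neutral wells for no effect and buffer without enzyme for full effect; nearly all actives have a fitted effect of over 40% in size; top concentration of the series not given in the record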
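Read-out: AMC fluorescence (360 nm excitation, 450 nm emission), four reads over 2 min, first-to-third difference used. Conditions: cruzain 1.5 nM, Z-FR-AMC 2 uM, pH 5.5 acetate, 5 mM DTT, 0.01% Triton X-100.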
Starred values were filed as active, the others as inactive; u = inconclusive; x = not tested or not shown; & = joins results of further samples; [ ] = dose if it differs, or a comment. Unless noted, calls come from the whole dose curve; as a rule, active = well fitted curve in the direction sought with a large enough effect; inconclusive = small, poorly fitted or top-dose-only effect, or another doubt; inactive = no such curve, though single readings can be large; an effect the other way counts as inactive or inconclusive. Potency is the fitted concentration of half-maximal effect.

Preview:
canonical_smiles	Cruzain noTriton	MARV entry inh	2A StopGo	Lassa entry inh	RE007 growth inh	SARS PLpro yeast	NS1 inh	Cruzain inh Det
Cc1ccc(C)c2[nH]c(=O)c(CCNC(=O)c3ccc4c(c3)OCO4)cc12	-15%	-2%	2%	u	-5%	-4%	7%	-0.6%
CCOc1ccc(S(=O)(=O)Nc2cccc(C(=O)NCC3(N4CCCCC4)CCCCC3)c2)cc1	x	u	-1%	u	-19%	-9%	x	x
O=C(O)CCc1nnc2cnc3ccccc3n12	2%	u	1%	15%[46.1 µM]	x	x	x	-4.4%
COCCCNC(=O)c1ccc(CS(=O)(=O)c2ccc(OC)cc2)o1	-2%	x	-23%	x	2%	1%	-13%	-3.5%
Cc1ccc2nc(N3C(=O)CNC3=S)sc2c1	x	u	0%	u	u	-6%	-59%	x
Cc1cc(C)cc(OCc2ccc(C(=O)NN)o2)c1	x	x	-3%	x	-3%	-1%	10%	x
CC(Cc1cccs1)NC(=S)Nc1ccc(F)cc1 (stereo not drawn)	-4%	u	26%	u	-16%	28%	-20%	-1.1%
COc1ccc(C(=O)NCc2nnc(SCC(=O)N3CCc4ccccc43)n2C2CCCCC2)cc1	12%	u	6%	2%	-4%	29%	-6%	1.8%

The list itself (from the top)
canonical_smiles	Cruzain noTriton	MARV entry inh	2A StopGo	Lassa entry inh	RE007 growth inh	SARS PLpro yeast	NS1 inh	Cruzain inh Det
Cc1ccc(C)c2[nH]c(=O)c(CCNC(=O)c3ccc4c(c3)OCO4)cc12	-15%	-2%	2%	u	-5%	-4%	7%	-0.6%
CCOc1ccc(S(=O)(=O)Nc2cccc(C(=O)NCC3(N4CCCCC4)CCCCC3)c2)cc1	x	u	-1%	u	-19%	-9%	x	x
O=C(O)CCc1nnc2cnc3ccccc3n12	2%	u	1%	15%[46.1 µM]	x	x	x	-4.4%
COCCCNC(=O)c1ccc(CS(=O)(=O)c2ccc(OC)cc2)o1	-2%	x	-23%	x	2%	1%	-13%	-3.5%
Cc1ccc2nc(N3C(=O)CNC3=S)sc2c1	x	u	0%	u	u	-6%	-59%	x
Cc1cc(C)cc(OCc2ccc(C(=O)NN)o2)c1	x	x	-3%	x	-3%	-1%	10%	x
CC(Cc1cccs1)NC(=S)Nc1ccc(F)cc1 (stereo not drawn)	-4%	u	26%	u	-16%	28%	-20%	-1.1%
COc1ccc(C(=O)NCc2nnc(SCC(=O)N3CCc4ccccc43)n2C2CCCCC2)cc1	12%	u	6%	2%	-4%	29%	-6%	1.8%
O=C(CNc1ccc2ccccc2c1)NNC1=NCCC1	-3%	2%	1%	19%	-2%	14%	7%	0.1%
N#C/C(=C/Nc1ccccc1F)S(=O)(=O)c1ccc(Cl)cc1	x	3%[46.1 µM]	11%	4%[46.1 µM]	15%	8%	3%	x
CCC(=O)N1CCc2cc(Br)cc(S(=O)(=O)CCC(=O)NCc3ccco3)c21	-1%	-7%	17%	-4%	-15%	-7%	1%	-3.0%
CCc1cc(=O)[nH]c(SCc2nc(-c3ccc(C(F)(F)F)cc3)no2)n1	12%	x	u	18%[46.1 µM]	x	x	x	0.8%
CCn1nc(C)c(/C=N/NC(=O)Cn2cncn2)c1C	x	u	-1%	5%	-5%	2%	-1%	x
O=C(O)COc1ccc(Cl)cc1Cl	3%&4%&0%	x	-6%&4%	x	-6%	x	x	2.4%&4.8%&3.6%
Cc1ccc(-c2nnc(-c3ccccc3)o2)cc1Br	x	15%	34%[activator]	12%	2%	x	x	x
O=C(Nc1ccc2c(c1)OCO2)c1cc2ncc(Br)cn2n1	u	6%	10%	16%	0%	-1%	u	-13%
CCOC(=O)/C(C#N)=C/c1ccc(N2CCN(Cc3ccccc3)CC2)cc1	-7%	0%	u	0%	u	14%	4%	-8.9%
O=C(CCc1nnc(Cc2cccc(C(F)(F)F)c2)o1)NC1CC1	x	-2%[46.1 µM]	28%	2%[46.1 µM]	3%	0%	4%	x
COc1ccc(NS(=O)(=O)c2cccc(C(=O)NNC(=O)NCCCl)c2)cc1	x	-9%[46.1 µM]	14%	1%	15%	-1%	x	x
O=C(NCc1ccco1)C(NS(=O)(=O)c1cccc2nsnc12)c1ccccc1 (stereo not drawn)	-2%	-3%	37%[activator]	0%	12%	3%	-2%	-0.3%
Cc1c(C(=O)NCCSCc2ccc(F)cc2)cnn1-c1ccc(Cl)cc1	x	6%[14.2 µM]	-21%	u	-6%	-1%	-9%	x
CC(=O)c1ccc(NC(=O)CCc2nnc3ccc(NCc4ccco4)nn23)cc1	x	x	66%[activator]	x	-1%	-2%	0%	x
O=C(N/N=C1\CCCc2oc(C(=O)O)cc21)c1ccccc1	x	u	-10%	30%[46.1 µM]	-15%	4%	-1%	x
Cc1nn(Cc2cccc(C(=O)O)c2)c(C)c1[N+](=O)[O-]	x	1%[46.1 µM]	-4%	-3%[46.1 µM]	1%	0%	-1%	x
CCC(NC(=O)c1ccccc1NC(=O)c1ccccc1)C(=O)NNC(=O)CSc1nc2ccccc2o1 (stereo not drawn)	u	-25%[46.1 µM]	25%	0%	0%	6%	22%	-2.1%
COC(=O)C1=C(C)Nc2nc(-c3ccccc3)nn2C1c1ccc(C)o1 (stereo not drawn)	-8%	x	10%	x	12%	-4%	-84%	-4.8%
Cc1nn(-c2ncc(C(F)(F)F)cc2Cl)c(=O)n1-c1ccc(F)cc1	x	15%[46.1 µM]	1%	19%	20%	-7%	x	x
O=c1c2cc3c(cc2nc2sc(Nc4ccc(F)cc4F)nn12)OCO3	-12%	2%[46.1 µM]	25%	-9%[46.1 µM]	x	x	x	-1.0%
Cc1ccnc(NC(=O)Cn2c(=O)oc3ccccc32)c1	x	x	26%	x	11%	2%	13%	x
CC(C)OCCCn1c(=NC(=O)c2cccs2)c(C#N)cc2c(=O)n3ccccc3nc21	x	u	1%	u	-7%	0%	3%	x
Cc1cccc(NC(=O)CSc2nnc(CSc3nc(C)cc(C)n3)o2)c1	3%	u	-19%	-2%	-3%	-2%	-3%	4.3%
CCC(=O)N1CCCc2cc(S(=O)(=O)Nc3ccc(C)c(C)c3)ccc21	-11%	-1%[46.1 µM]	0%	u	x	x	x	-5.8%
CC1SC(C)C(=O)N(CC(=O)Nc2ccc3c(c2)OCO3)C1=O (stereo not drawn)	-23%	u	15%	8%	6%	18%	4%	-0.2%
Cc1cc(=O)oc2cc(OCc3ccc(C(=O)N4CCN(c5ccccc5)CC4)cc3)ccc12	-28%	16%	-12%	0%	-7%	-22%	u	-5.0%
COc1ccccc1CNC(=O)CN(c1ccccc1OC)S(C)(=O)=O	-2%	x	-9%	-4%[46.1 µM]	x	x	x	1.6%
O=C(Cc1ccc(F)cc1)NC1CCCCCC1	x	14%	36%[activator]	22%	8%	-5%	4%	x
CCn1c(-c2cc(-c3cc(C)ccc3C)nc3ccccc23)n[nH]c1=S	u	0%	-18%	7%	-6%	9%	6%	-2.1%
Cc1cccc(-c2nc(CSCC(=O)N3CCN(c4cccc(C)c4C)CC3)c(C)o2)c1	-5%	x	u	7%[46.1 µM]	x	x	x	1.8%
Cc1ccc2oc(C(=O)Nc3nnc(CC(C)C)s3)cc(=O)c2c1	-10%	-20%[46.1 µM]	-15%	28%[46.1 µM]	x	x	x	-2.3%
C=CCSC1=N/C(=C/c2ccsc2)C(=O)N1c1ccccc1	-11%	-16%	-5%	1%	-2%	-4%	12%	-6.7%
CC(=O)c1ccc(N2Cc3ccccc3C2)cc1	x	u	-13%	u	-1%	-9%	9%	x
CC12CCC(C(=O)N3CCN(c4ncccn4)CC3)(c3nc4ccccc4nc31)C2(C)C (stereo not drawn)	u	-4%&-8%	-21%	1%	18%	-3%	-43%	-2.9%
COc1cc2c(cc1OC)CN(Cc1ccc(C)cc1)CC2	x	-12%	-28%	1%	8%	-3%	4%	x
CSc1ccc(CN2CCN(Cc3ccc([N+](=O)[O-])cc3)CC2)cc1	x	u	u	u	-1%	1%	x	x
COc1ccc(NC(=O)CO/N=C2\CCCc3nonc32)cc1	-9%	u	-16%	3%	7%	17%	3%	-1.2%
O=S1(=O)CCN2C(=N1)SC1=C2CCN(Cc2ccccc2)C1	7%	24%	0%	1%	14%	-3%	1%	2.4%
COc1cc(CCNC(=O)c2cnn3ccccc23)cc(OC)c1OC	-7%	x	-19%	x	-7%	0%	-8%	6.2%
O=C(COc1ccc(S(=O)(=O)N2CCOCC2)cc1Cl)N1CCOCC1	x	5%[46.1 µM]	-1%	1%	1%	4%	11%	x
c1ccc(CNc2ncnc3scc(-c4cccs4)c23)nc1	x	x	16µM*	x	5%	0%	-31%	x
COc1cc(NC(=O)CCCN2C(=O)NC(C)(C)C2=O)cc(OC)c1	x	7%	-5%	-20%	-3%	2%[6.58 µM]	x	x
C=CCc1cccc2cc(NC(C)=O)c(=O)oc12	-7%	0%	1%	8%	-8%	2%	5%	-0.2%
